Compound activity: PubChem, Fisher Drug Discovery Resource Center
NPYLR7 agonist = agonists of mosquito NPYLR7 receptor, primary screen, cell-based, Aedes aegypti, calcium fluorescence, mosquito biting behavior; 270,000 compounds, 0.15% hits; HEK293T NPYLR7/Galpha15, GCaMP6s calcium fluorescence; activation, % at 10 µM; Aedes aegypti neuropeptide Y-like receptor 7 (NPYLR7); AID 1259423, 2018; in the data active = activation above about 40%;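 note: 0% = vehicle and 100% = reference agonist at the receptor; some compounds past the cut are filed as inactive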
NPYLR7 agonist max-min = second read-out of NPYLR7 agonist, no call of its own (marks repeat the call); activation, %; measured here: Max-Min RFU normalised activation; some inactives read as strong as hits;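 span of the calcium signal over five minutes; 0% = vehicle and 100% = native peptide agonist; compound fluorescence can raise it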
Starred values were filed as active, the others as inactive; & = joins results of further samples. Some of the compounds tested (hit frequency here may not be typical).

SMILES	NPYLR7 agonist	NPYLR7 agonist max-min
O=C(c1ccc(Cl)cc1)c1ccc(OS(=O)(=O)N2CCOCC2)cc1	0	7
CC(C)CN(CC#N)c1c(N)n(CC(C)C)c(=O)[nH]c1=O	7	3
COc1cccc(CC(C2CCN(C(=O)C3=CCCC3)CC2)N(C)C(=O)c2ccco2)c1 (stereo unspecified)	-2	-7
COc1ccc2sc(C(=O)NCc3cccc(OC(F)F)c3)c(Cl)c2c1	3	-2
CCOc1ccc(CC(=O)Nc2ccccc2C)cc1	-1	-3
COc1ccc(-n2nc(-c3ccccc3)cc2NC(=O)c2ccc(F)c(F)c2)cc1	-6	-10
O=C(CSc1ccc2nnc(-c3cccnc3)n2n1)N1CCC(Sc2ccc(F)cc2)CC1	-10	-9
Cc1cc2oc(=O)cc(C)c2cc1NC(=O)c1c(C)nc2ncccn12	-3	-7
CC1Cc2nc(SCC(=O)c3ccccc3)n(-c3ccc(F)cc3)c(=O)c2S1 (stereo unspecified)	5	0
Cc1cc(=S)n2ccsc2n1	-4	-1
CNC(=O)[C@@H]1[C@@H](OC(=O)Nc2ccccc2)C(=O)N(C)C12CCN(C(=O)c1cccc(C#N)c1)CC2	27	30
CNc1ccc(Br)c2c1C(=O)c1ccccc1C2=O	-6	-10
Cc1ccc(COc2ccc(/C=N\NC(=O)CN3CCCCC3)cc2)cc1	-5	-13
COCc1cccc(NC(=O)NCC(C)(C)SC)c1	-1	-2
O=C(C1CCCCC1)N1CCC(Cc2ccc(-c3ccccc3)cc2)CC1	1	10
CCCc1nnc2c(C(=O)NCCSCc3ccccc3)cccn12	-5	-10
CC(CS(C)(=O)=O)C(=O)Nc1ccccc1CCC(F)(F)F (stereo unspecified)	-2	-1
O=C(CCC1CCCC1)N1CCN(C2c3ccccc3CCc3ccccc32)CC1	-1	9
Cc1ccc(-c2cn3ccsc3n2)cc1	5	15
COc1cc(CN2CCN(C(C)C)C(CCO)C2)ccc1OCc1ccccc1 (stereo unspecified)	10	9
COc1cc(-c2ccnc(N3CCN(C(=O)c4ccc(F)c(Cl)c4)CC3)n2)cc(OC)c1OC	-1	4
CC1CN(C(=O)CCN2CCc3sccc3C2c2ccccc2)CCN1C(=O)c1ccc(Cl)cc1Cl (stereo unspecified)	3	-3
Oc1cccc(N=Cc2c[nH]c3ccc(Br)cc23)c1	8	5
O=C(c1c(C(F)(F)F)ccc(Cl)c1F)N1CCN(c2nccc(-c3ccco3)n2)CC1	3	14
COCCCN(CC(=O)N1CCc2sccc2C1c1ccc(OC)cc1)C(=O)COCc1ccccc1 (stereo unspecified)	16	26
Cc1ccc(/C=C/C(=O)N2CCN(C(=O)c3c[nH]c(=O)[nH]3)CC2)cc1	4	6
CSCc1nnc(SCc2c(C)nn(C)c2Cl)o1	4	3
CC(=O)Nc1cnn(-c2ccc(C(=O)N3CCC(c4ccccc4Cl)C3)cc2)c1 (stereo unspecified)	16	2
CCC(C)NC(=O)c1cc(NC(=O)C2C[C@H]2c2ccccc2)ccc1N1CCCCC1 (stereo partly specified)	-4	7
N#CCCN(C(=O)CCN1C(=O)CCNC1=S)C1CC1	14	6

Quoted at random: 2 records from the list.
SMILES	NPYLR7 agonist	NPYLR7 agonist max-min
Oc1cccc(N=Cc2c[nH]c3ccc(Br)cc23)c1	8	5
O=C(C1CCCCC1)N1CCC(Cc2ccc(-c3ccccc3)cc2)CC1	1	10

Going on with the list:
SMILES	NPYLR7 agonist	NPYLR7 agonist max-min
COc1cccc(NC(=O)N2CC(O)CC2C2CCCCC2)c1 (stereo unspecified)	6&16	2&14
OCc1cc(Cl)c(CO)cc1Cl	7	0
C=CCCC(O)CN(CCOC)Cc1c(C)nn(-c2ccccc2)c1Oc1ccccc1OC (stereo unspecified)	5	5
COc1ccc(-c2cc(C(=O)NC(C)CCc3ccccc3)n(-c3ccccc3)n2)cc1 (stereo unspecified)	-1	12
CCOC(=O)C1(CCOc2ccccc2)CCN(Cc2cnc(N(C)C)s2)CC1	1	0
CCC(=O)c1ccc(OCC(=O)N[C@H]2COC[C@@H]2N2CCCCC2)cc1	1	-1
CCOC(=O)c1nn(-c2ccc(Cl)c(Cl)c2)cc1O	-7	-13
CS(=O)(=O)NC1CCN(CCn2c(=O)oc3ccccc32)CC1	23	9
C=CCN(CC=C)C(=O)CSc1nnc(-c2ccco2)n1-c1ccc(C)cc1	-1	14
O=S(=O)(c1ccc(CN2CCCC(O)(CO)C2)cc1)N1CCOCC1 (stereo unspecified)	-3	-7
CCN(CC)S(=O)(=O)c1ccc2c(c1)nc(SCc1c(C)noc1C)n2C(C)C	20	21
COc1ccc(NC2CCCN(C(=O)c3ccc4c(c3)C(=O)N(C)C4=O)C2)cc1 (stereo unspecified)	8	7
CCc1nc2ccc(C(=O)NC3CCN(C)CC3)cn2c1N(C)C=O	4	21
COc1ccc(Cl)cc1-c1nc2ccccc2c(=O)o1	2	-1
CC(=O)Nc1ccc(S(=O)(=O)N2CCN(c3nc(C(C)C)nc4sc(C)c(C)c34)CC2)cc1	-9	2
O=C(Cc1cccnc1)NS(=O)(=O)c1ccc2c(c1)CCCC2	6	3
Cc1ccnc(CC(C)N(C)C(=O)c2cc(F)ccc2C)c1 (stereo unspecified)	-3	-4
COc1ccccc1N1CCN(C(=O)c2nn(-c3ccccc3)c(=O)cc2OC)CC1	2	0
COc1ccc(CCN(C)C(=O)c2c(-c3c(F)cccc3Cl)noc2C)cc1OC	19	3
O=C(Nc1cccc(F)c1)N1CCc2nc(NCc3cccc(Oc4ccccc4)c3)ncc2C1	-1	-3
O=C(Nc1cccc(F)c1)c1cccc(CN2CC=CCC2)c1	-2	-3
CC(C)OC(=O)c1cc(N)ccc1SC#N	-10	-16
O=C(N1CCN(c2ccccc2)CC1)N1c2ccccc2Sc2ccccc21	3	1
Cc1cc(O)ccc1Nc1cc(-c2cccc(N(C)C)c2)ncn1	-3	-4
CCCn1cnnc1CNC(=O)c1cccc(-n2nc(C)cc2C)c1	20	5
COc1cccc(C(=O)Nc2cccc(-n3nc(OC)nc3-c3cccc(OC)c3)c2)c1	8	12
NC(=O)c1ccc(NC(=O)c2cccc(COc3ccc(Cl)cc3)c2)cc1	2	-1
CCS(=O)(=O)Nc1cccc(C(=O)N2CCCCC2)c1	2	1
CCCN1N=C(c2ccc(Cl)cc2)Cn2c1nc1c2c(=O)n(C)c(=O)n1C	-8	-9
CCCSc1nnc(CNC(=O)C23CC4CC(CC(C4)C2)C3)n1Cc1ccccc1	-2	-7
CCOC(=O)N(C)CC(=O)Nc1cnc(C(C)(C)C)nc1	-2	-5
CCCc1nnc2sc(CCCN3CCCCCC3)nn12	2	-1
Cc1cccc(Oc2cnn(-c3ccccc3)c(=O)c2Nc2cccc(C(=O)O)c2)c1C	2	1
Cc1cc(Nc2ccc3c(n2)C(=O)N([C@H](C)C(=O)NC2CCC(O)CC2)C3)n(C)n1 (stereo partly specified)	5	0
CSc1ccc(NC(=O)C2(C)CCN2C(=O)c2cc(C)n(C)n2)cc1 (stereo unspecified)	1	8
Cc1nnc(-c2ccc(OCC(=O)Nc3cccc(C)c3C)cc2)o1	-8	-8
O=C(CN1C(=O)c2ccccc2C1=O)Nc1ccc(I)cc1	1	-3
CC(c1nccs1)N(C)C(=O)CCC(=O)Nc1ccc(F)c(Cl)c1 (stereo unspecified)	-1	-6
Cc1ccc(NC(=O)c2c(N)n(/N=C\c3cccs3)c3nc4ccccc4nc23)cc1	11	9
Fc1cccc(-c2nnn3c2nc(NC2CCCCC2)c2ccccc23)c1	3	0
C#CCN(C)C(=O)c1ccc(-c2cccc(Cl)c2)s1	28	31
CC(C)NC(=O)CNC(=O)c1cc2sccc2[nH]1	-4	-9
COc1ccc(NC(=O)[C@@H](NS(=O)(=O)c2ccc(C)cc2)C(C)C)cn1	28	21
Cc1ccc(NS(=O)(=O)c2cc(Cl)cc(Cl)c2)cc1	0	-3
CCN(CC)CCNC(=O)c1c(N)cccc1Cl	-2	-4
COC(=O)CCc1c(C)nn(-c2ccc(C(=O)Nc3ccc(-c4ccccc4)cc3)cc2)c1C	-13	-16
CCOc1ccc(C2c3cccn3CCCN2Cc2ccncc2)cc1 (stereo unspecified)	-6	4
O=C(CSc1nnc2n1CCCCC2)Nc1ccc2[nH]c(=O)[nH]c2c1	5	4
CCOc1ccc(C2CC(c3ccccc3)=Nc3nc4ccccc4n32)cc1 (stereo unspecified)	-6	-10
Cc1nn(C)c(C)c1NC(=O)CN(C1CCCC1)C1CC1	-19	-24
(continued)
SMILES	NPYLR7 agonist	NPYLR7 agonist max-min
O=C(CCc1cccs1)N1CCN(C(=O)c2cccc(O)c2)CC1	8	6
Cc1cc(N2CCCC(c3ccnn3CCO)C2)nc(C)n1 (stereo unspecified)	2	1
COc1cccc(C2=N/C(=C\c3cccs3)C(=O)O2)c1	-8	-16
Cc1ccc(N2C(=O)/C(=C/c3ccc([N+](=O)[O-])cc3)C=C2c2ccccc2)cc1[N+](=O)[O-]	-1	6
COc1cc(/C=C2\C(=O)N(c3ccc(Cl)c(C(=O)O)c3)N=C2C)cc(OC)c1OC	-5	-13
CSc1nn(CC(=O)Nc2ccc(C)c(C)c2)c(N)c1-c1nc(-c2ccc3c(c2)OCO3)no1	1	-7
COC(=O)c1ccc(/C=C2\N=C(c3cc(F)c(F)cc3Cl)OC2=O)cc1	-28	-30
CC1CN(CCCCNCc2ccc(Br)cc2)CC(C)O1 (stereo unspecified)	0	8
C/C=N\N=C1/NC(=O)C(CC(=O)Nc2cccc(C)c2C)S1 (stereo unspecified)	7	5
O=C1OC2(CCCCC2)OC(=O)C1=CNc1ccccc1F	6	5
COc1ccc(OC)c(NC(=O)C2CCCCC2)c1	9	3
Cc1ccc(S(=O)(=O)Nc2cccc(S(=O)(=O)Nc3ccccc3Cl)c2)c(C)c1	0	-1
COc1cc2c(cc1OC)CN(c1ncccc1C(=O)O)CC2	1	0
CCOC(=O)C1=C(C)NC(C)=C(C(=O)OCC)C1c1cccc([N+](=O)[O-])c1	3	3
CCCCCCC(C)NN (stereo unspecified)	-12	-23
CC(C)CNC(=O)C(=O)N1CCCn2cncc2C1	3	-1
C=C1C(C)(C)[C@H]2CC[C@]1(C(=O)N1CCN(C)C3(CCN(C)CC3)C1)C2	7	3
CCOCCCN(CC(=O)N(CCc1ccc(OC)c(OC)c1)Cc1ccc(C)s1)C(=O)Nc1ccc(SC)cc1	8	17
COc1ccc(C(C)=O)cc1CN1C(=O)CON=C1Cc1ccccc1	4	2
O=C(CN1CCN(C(=O)Nc2ccc(F)cc2)CC1)Nc1cccc(F)c1	-1	6

Molecules listed so far with an aryl thioether with sulfur outside any ring:
SMILES	NPYLR7 agonist	NPYLR7 agonist max-min
O=C(CSc1ccc2nnc(-c3cccnc3)n2n1)N1CCC(Sc2ccc(F)cc2)CC1	-10	-9
CC1Cc2nc(SCC(=O)c3ccccc3)n(-c3ccc(F)cc3)c(=O)c2S1 (stereo unspecified)	5	0
CSCc1nnc(SCc2c(C)nn(C)c2Cl)o1	4	3
C=CCN(CC=C)C(=O)CSc1nnc(-c2ccco2)n1-c1ccc(C)cc1	-1	14
CCN(CC)S(=O)(=O)c1ccc2c(c1)nc(SCc1c(C)noc1C)n2C(C)C	20	21
CCCSc1nnc(CNC(=O)C23CC4CC(CC(C4)C2)C3)n1Cc1ccccc1	-2	-7
CSc1ccc(NC(=O)C2(C)CCN2C(=O)c2cc(C)n(C)n2)cc1 (stereo unspecified)	1	8
O=C(CSc1nnc2n1CCCCC2)Nc1ccc2[nH]c(=O)[nH]c2c1	5	4
CSc1nn(CC(=O)Nc2ccc(C)c(C)c2)c(N)c1-c1nc(-c2ccc3c(c2)OCO3)no1	1	-7
CCOCCCN(CC(=O)N(CCc1ccc(OC)c(OC)c1)Cc1ccc(C)s1)C(=O)Nc1ccc(SC)cc1	8	17

Other compounds.
SMILES	NPYLR7 agonist	NPYLR7 agonist max-min
CCc1ccccc1NC(=O)Cn1c(=O)n(Cc2ccco2)c(=O)c2oc3ccccc3c21	22	12
CN(C)c1cccc(C(=O)N2CCN(C(c3ccccc3)c3ccc(Cl)cc3)CC2)c1 (stereo unspecified)	33	15
c1ccc(-n2nnnc2SCc2ccc3nonc3c2)cc1	3	-1
O=C(NCc1ccc(C(F)(F)F)cc1)c1ccco1	10	7
O=C1NCCN(Cc2ccc(F)c(F)c2)C1CC(=O)N1CCc2[nH]ncc2C1 (stereo unspecified)	9	7
Cn1cc(NC(=O)c2ccc(Br)cc2)cn1	-1	-1
Cc1ccccc1-n1c(SCc2nc(C(=O)NCCc3ccccn3)cs2)nnc1-c1cccnc1	-6	-5
O=C(CSc1nc(=O)[nH]c2c1CCCC2)NC1CCCCC1	0	-3
O=C(Nc1nnc(Cc2ccccc2F)s1)c1ccc(=O)[nH]n1	4	-4
CC(C)(C)OC(=O)NCCCCCC(=O)N1CCCC1c1nnc2c(C(F)(F)F)cccn12 (stereo unspecified)	-7	-11
CS(=O)(=O)N1CCN(c2ccc3nncn3n2)CC1	3	9
Cc1csc2nc(CSc3nnc(-c4ccco4)n3C3CCCCC3)cc(=O)n12	0	1
O=C1NC(=S)N/C1=C/c1ccc(-c2ccc([N+](=O)[O-])cc2Cl)o1	-4	-15
Cc1cccc(C(C(=O)N(C)Cc2noc(C3CCC3)n2)N(C)C)c1 (stereo unspecified)	11	6
CC(OCC1CC1)C(=O)N(C)CCCc1cc(-c2ccccc2)no1 (stereo unspecified)	5	-21
CC(C)(CO)NC(=O)c1cccc2[nH]c(-c3ccncc3)nc12	0	19
O=C(CNC(=O)c1ccsc1)NC1(c2ccc(F)cc2)CCC1	4	0
CC(=O)N1CCc2c(sc(NC(=O)c3ccc(F)cc3)c2-c2nc3ccccc3s2)C1	4	4
CN1CC2(CCN(C(=O)c3ccccc3-c3ncc[nH]3)C2)OC1=O (stereo unspecified)	-1	-1
Cc1nc(-c2ccccc2)sc1C(=O)Nc1c(C)nc2sccn2c1=O	-12	-11
